# GIV-Gai inh = blocks GIV peptide binding to rat Galpha-i3. P08753. Galpha-i3/FITC-GIV peptide fluorescence polarization, 90 min; active compounds read low; scaled: aluminum fluoride 0%, vehicle 100%. percent of control (FP), % (no concentration beside the values). 210,000 compounds, 0.42% hits;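 active = replicate mean at 85% of control or lower, very high polarization wells dropped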;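 note: wells of about 15 µL received 100 nL stock; the first replicate is given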
# Target sequence (P08753 whole entry, looked up): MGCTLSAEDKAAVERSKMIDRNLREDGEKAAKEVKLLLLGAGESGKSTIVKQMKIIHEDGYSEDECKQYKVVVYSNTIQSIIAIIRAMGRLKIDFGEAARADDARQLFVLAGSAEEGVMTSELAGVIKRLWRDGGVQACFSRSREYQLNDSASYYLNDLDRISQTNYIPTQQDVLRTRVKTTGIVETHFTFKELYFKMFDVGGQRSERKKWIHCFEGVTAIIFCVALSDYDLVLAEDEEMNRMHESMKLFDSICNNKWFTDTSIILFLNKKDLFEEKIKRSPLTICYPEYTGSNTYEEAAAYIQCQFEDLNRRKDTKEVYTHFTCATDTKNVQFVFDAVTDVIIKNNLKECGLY
# The depositor's hits bear a star. A portion of the library; the hit share may differ from the screen's.
SMILES,GIV-Gai inh
CC(=O)c1cccc(NC(=O)c2ccc(N3CC4CC(C3)c3cccc(=O)n3C4)c(NC(=O)c3ccccc3Cl)c2)c1 (stereo not given),120
COc1ccc(C2C(C#N)=C(N)Oc3cc(C)oc(=O)c32)cc1OCc1ccccc1 (stereo not given),108
CN(C)c1ccc(C(c2cc(C(C)(C)C)c(O)c(C(C)(C)C)c2)N2CCCCC2)cc1 (stereo not given),104
COc1ccc(/C=C2\N=C(c3ccc(Cl)cc3)N(c3ccccc3Cl)C2=O)cc1OC,111
COC(=O)c1ccc(C2C(C#N)=C(N)Oc3n[nH]c(-c4ccc(Cl)s4)c32)cc1 (stereo not given),111
COc1ccc2c(c1)c(CC(=O)NCc1ccccn1)c(C)n2C(=O)c1ccc(Cl)cc1,109
Cc1ccc(-c2noc(C(=O)NCc3cccnc3)n2)cc1S(=O)(=O)N1CCCCC1,102
COc1ccc(/C=C2\C=C(c3ccccc3)N(c3ccc(O)cc3)C2=O)cc1Br,111
CCn1c(SCc2nc(-c3ccccc3)no2)nc2cc3c(cc2c1=O)OCO3,99
Cc1nc(CN2C(=O)COc3cc(S(=O)(=O)NC4CC4)c(Cl)cc32)no1,104
CCn1cccc1-c1nc(C)c(C(=O)Nc2ccc(C)c(C)c2)s1,104
O=C(CSc1nnc(-c2cccnc2)n1-c1ccc(Br)cc1)c1cccc([N+](=O)[O-])c1,96
Cn1c(=O)c2nc(SCC(=O)Nc3cccc(Br)c3)n(C)c2n(C)c1=O,102
Cc1ccc(C)c(NC(=O)CCc2nc(CSc3nc(-c4ccccc4)cs3)no2)c1,105
CN(C)C(=O)c1cccc2c1CCN2C(=O)C1CC1,105
CCCCC(=O)Nc1cccc(-c2ccc3cc(C(C)C)ccc3n2)c1,100
COC(=O)C1=C(C(=O)OC)SC2(S1)C(C(=O)OC)=C(C(=O)OC)SC1=C2c2cccc(C)c2N(C(=O)c2cccc(OC)c2)C1(C)C,105
CCC1=C(C)c2cc3nc(C(=O)OCc4ccccc4)c(C)c-3c(C)n2C1C (stereo not given),116
COc1ccc(C2CC(c3cccs3)=NN2C(=O)CSC2=NN3CCCC(=O)N=C3S2)cc1 (stereo not given),112
CC(NC(=O)c1ccc(F)cc1)c1ccc2c(c1)OCCCO2 (stereo not given),100
Cc1cc(C)n(-c2nnc(C)n2/N=C/c2ccccc2F)n1,104
CCCCCCCCCCOC(=O)c1ccc(N2C(=O)C3C4c5ccccc5C(c5ccccc54)C3C2=O)cc1 (stereo not given),106
Cc1csc(-c2cc(S(=O)(=O)N3CCCC3)c(C)n2C)n1,111
O=C(OCCCN(C1=NS(=O)(=O)c2ccccc21)c1ccccc1)c1ccccc1F,101
Cc1ccc(-n2c(=O)c3ccccc3n(Cc3nc(-c4ccccc4)no3)c2=O)cc1C,104
O=c1nc2n(-c3ccc(F)cc3)c3ccccc3cc-2c(=O)[nH]1,105
COc1ccc(C2CC(=O)NC(SCC(=O)Nc3ccccc3)=C2C#N)cc1OC (stereo not given),108
CCc1c(C(=O)c2ccc(Cl)cc2)oc2ccc3c(C)cc(=O)oc3c12,113
CS(=O)(=O)N1CCC(c2noc(-c3ccccc3)n2)CC1,106
Cc1ccc(CSc2nc3c(sc(=S)n3-c3ccccc3C)c3nc4ccccc4n23)c(C)c1,110

# Given with each value named: three of the compounds above.
> CCC1=C(C)c2cc3nc(C(=O)OCc4ccccc4)c(C)c-3c(C)n2C1C (stereo not given)
  GIV-Gai inh = 116
> Cc1ccc(-n2c(=O)c3ccccc3n(Cc3nc(-c4ccccc4)no3)c2=O)cc1C
  GIV-Gai inh = 104
> COc1ccc(C2CC(c3cccs3)=NN2C(=O)CSC2=NN3CCCC(=O)N=C3S2)cc1 (stereo not given)
  GIV-Gai inh = 112

# A second format for 2 compounds above.
> COc1ccc(C2CC(=O)NC(SCC(=O)Nc3ccccc3)=C2C#N)cc1OC (stereo not given)
  GIV-Gai inh: 108

> Cc1ccc(CSc2nc3c(sc(=S)n3-c3ccccc3C)c3nc4ccccc4n23)c(C)c1
  GIV-Gai inh: 110

# Next entries
SMILES,GIV-Gai inh
CC(C)CN1CCn2cc(S(=O)(=O)N3CCN(c4ccccc4)CC3)cc2C1=O,102
Cc1n[nH]c(C)c1S(=O)(=O)N1CCCC(c2nnc(C(=O)Nc3cccc(F)c3)s2)C1 (stereo not given),110
Cc1ccc(NC(=O)Cn2cnc3sc(C(=O)N4CCN(c5cccc(Cl)c5)CC4)c(C)c3c2=O)cc1Cl,105
CCc1ccc(NC(=O)CSc2nnc(C(C)N3C(=O)COc4ccccc43)n2C)cc1 (stereo not given),100
Fc1ccc(-c2csc(Cc3nc(-c4cccc(Cl)c4)no3)n2)cc1,105
CCOC(=O)C1=C(C)NC(=O)NC1c1ccc(OCC(=O)N2CCOCC2)c(OC)c1 (stereo not given),110
COC(=O)C1=C(N)N(c2ccc(S(N)(=O)=O)cc2)C2=C(C(=O)CCC2)C1c1ccc2c(c1)OCO2 (stereo not given),109
CCCN1CCN(S(=O)(=O)c2c(-c3nc(C4CC4)no3)c(C)n(CC)c2C)CC1,104
Cc1cc(-c2cc(S(=O)(=O)NCCCOC(C)C)c(C)s2)n[nH]1,100
Cc1ccc(CN2CCN(c3ncnc4c3CCC4)CC2)o1,109
CCOc1ccccc1N1CCN(S(=O)(=O)c2nn(C)cc2C(=O)NC2CCCC2)CC1,105
CC(=O)Nc1ccc([N+](=O)[O-])cc1-c1nc2cc(C)c(C)cc2[nH]c1=O,112
CCN(CC)S(=O)(=O)c1ccc(C(=O)Nc2sc3c(c2-c2nc4ccccc4s2)CCCC3)cc1,108
CCNc1ncnc2onc(-c3ccccc3C)c12,103
CCOC(=O)C1=C(C)NC2=C(C(=O)c3ccccc32)C1c1ccc(OC)c(OC)c1 (stereo not given),107
COc1ccc(CC(=O)Nc2nnc(SCC(=O)Nc3ccccc3C(F)(F)F)s2)cc1,107
O=C(NCc1ccco1)c1ccc2c(c1)ncn2-c1ccc(OCc2ccccc2)cc1,99
CCOC(=O)c1c(NC(=O)CSc2nnc(CNC(=O)c3cc(OC)cc(OC)c3)n2C)sc2c1CCCC2,106
COc1ccc(Cn2c(=S)[nH]c3cc(C(=O)Nc4cc(OC)c(OC)c(OC)c4)ccc3c2=O)cc1,108
CC1C(c2ccccc2)NC(c2ccccc2)C(C)C1(O)c1ccccc1 (stereo not given),95
c1ccc(-c2nc(NC3CCCCC3)c3oc4ccccc4c3n2)cc1,105
COc1ccc(OC)c(C2C3=C(NCCN=C3c3ccccc3)C(=O)N2c2ccccc2)c1 (stereo not given),106
NC(=O)C1(N2CCCCC2)CCN(C(=O)c2ccc3c(=O)n(Cc4ccco4)c(=S)[nH]c3c2)CC1,106
CN(C)c1ccc(/C=c2/sc3n(c2=O)NC2(c4ccccc4)N(C)C(=O)N(C)C2(c2ccccc2)N=3)cc1 (stereo not given),107
CC(=O)[C@H]1[C@H](c2ccc(Br)cc2)C(C#N)(C#N)[C@@H]2c3ccccc3C=CN21,126
Cc1cccc(N(CC(=O)Nc2ccc(S(=O)(=O)N3CCOCC3)cc2)S(=O)(=O)c2ccccc2)c1C,111
C=CCOC(=O)C1=C(C)NC(SCC(=O)Nc2cc(C)ccc2C)=C(C#N)C1c1ccco1 (stereo not given),99
CC(=O)Oc1ccc2c(c1)C(=O)c1cc(OC(C)=O)ccc1-2,111
Fc1ccc(N=c2scc(-c3ccc(-c4ccccc4)cc3)n2CCc2ccccc2)cc1,108
CCOc1ccc(-n2c(=S)sc3c2nc(SCC(=O)Nc2ccc(OC)cc2OC)n2c4ccccc4nc32)cc1,106
CC1(C)CN(CC(=O)N2CCCC2)c2ccc(S(=O)(=O)N3CCOCC3)cc21,102
O=C(Nc1ccccc1)C1CCCN(C(=O)C2Sc3ccccc3NC2=O)C1 (stereo not given),109
COc1ccc(N2CCN(c3nccc4ccc(C(=O)NCc5ccc(Cl)cc5)cc34)CC2)cc1,99
O=C(CN1C(=O)C2(OCCO2)c2cc(Br)ccc21)c1cccc2ccccc12,106
CCOC(=O)C1CCN(C(=O)c2nnc(-c3ccc(S(=O)(=O)N4CCCC4)cc3)o2)CC1,99
CCN(CC)c1cc(CNC(=O)NCCCOC)ccn1,100
Cc1cc(N2CCN(C)CC2)n2nc(CN3CCC4(CC3)OCCO4)nc2n1,108
CC1(C)CC(=O)C2=C(C1)Nc1ccccc1N(CC(=O)NCc1ccncc1)C2c1ccccc1 (stereo not given),103
c1ccc(C2Nc3cccc4cccc(c34)N2)cc1,121
CCOc1ccc(/C=C2\CN(C)CC3=C2OC(N)=C(C#N)C3c2ccc(OCC)cc2)cc1 (stereo not given),102
COc1ccc(S(=O)(=O)N(CC(=O)Nc2c(C)n(C)n(-c3ccccc3)c2=O)c2ccc(C)cc2)cc1,111
CC(=O)N1CCN(C2=NC(=O)/C(=C\c3ccccc3OC(C)C)S2)CC1,103
CCOC(=O)N1CCC2(CC1)N=C(c1ccccc1O)CC(c1ccccc1)N2 (stereo not given),99
Cc1ccc(-c2ccc3nn(Cc4nc(-c5cccc(Br)c5)no4)c(=O)n3n2)cc1,112
Cc1cc(C)nc(NC(=O)C(Cc2ccccc2)N2C(=O)C3CCCCC3C2=O)n1 (stereo not given),116

# A run of entries from the list above, as a working copy:
SMILES,GIV-Gai inh
O=C(CN1C(=O)C2(OCCO2)c2cc(Br)ccc21)c1cccc2ccccc12,106
CCOC(=O)C1CCN(C(=O)c2nnc(-c3ccc(S(=O)(=O)N4CCCC4)cc3)o2)CC1,99
CCN(CC)c1cc(CNC(=O)NCCCOC)ccn1,100
Cc1cc(N2CCN(C)CC2)n2nc(CN3CCC4(CC3)OCCO4)nc2n1,108
CC1(C)CC(=O)C2=C(C1)Nc1ccccc1N(CC(=O)NCc1ccncc1)C2c1ccccc1 (stereo not given),103
c1ccc(C2Nc3cccc4cccc(c34)N2)cc1,121

# (continued)
SMILES,GIV-Gai inh
Cc1ccc(N(CC(O)CN(Cc2ccccc2)Cc2ccccc2)S(=O)(=O)c2ccc([N+](=O)[O-])cc2)cc1 (stereo not given),103
CCC(C)(N)c1nnnn1-c1ccc(C)cc1 (stereo not given),101
CCOC(=O)C1CCCN(C(=O)Cn2c(=O)c(=O)n(C)c3ncccc32)C1 (stereo not given),102
Cc1ccc(Oc2cc(Oc3ccc(C)cc3)c3noc4c3c2C(=O)c2ccccc2-4)cc1,121
Cc1ccc(-c2noc(-c3cc(N4CCSCC4)nc4ccccc34)n2)cc1,110
COc1ccc(CCNC(=O)c2c[nH]c3ccc(S(=O)(=O)N4CCCCCC4)cc3c2=O)cc1OC,108
CCN1CCCC1Cn1c(SCc2cc(C(C)=O)ccc2OC)nc2ccccc2c1=O (stereo not given),104
CCOc1ccc(C2Oc3c(OC)cccc3C3CC(c4ccc(OC)cc4)=NN32)cc1 (stereo not given),106
O=C(NC1CC1)C1CCN(c2ncc(-c3ccccc3)cn2)CC1,100
CC(=O)OC(OC(C)=O)C12C=CC(O1)C1C(=O)N(c3cc([N+](=O)[O-])ccc3Cl)C(=O)C12 (stereo not given),102
Cc1cc(C)c2c(n1)sc1c(=O)n(CC(=O)Nc3ccc4c(c3)OCCO4)cnc12,103
CCCCCOC(=O)c1ccc(N2C(=O)C3C4c5ccccc5C(c5ccccc54)C3C2=O)cc1 (stereo not given),101
CC(=O)Nc1ccc(-c2noc(C3CCCN(C(=O)Cc4cccc(F)c4)C3)n2)cc1 (stereo not given),104
CCc1nc2ccc(C(=O)NCc3ccc(F)cc3)cc2nc1CC,113
Cc1cc(NC(=O)c2cccnc2)ccc1-c1nc2ccccc2s1,113
FC(F)(F)c1cccc(N2NC3(CCCCC3)NC2=S)c1,108
Cc1cc(C)c2c(c1)-c1c(ssc1=S)C(C)(C)N2C(=O)CN1CCOCC1,106
Cc1ccc2nc(COc3ccc(NC(=O)Nc4ccc(Cl)cc4)cc3)cc(=O)n2c1,85*
CCOC(=O)c1cc2c(cc1C(=O)OCC)[n+](CC)c(/C=C/C=C1N(CC)c3cc(Cl)c(Cl)cc3N1CC)n2CC,122
Cc1cccc(-n2nnnc2C2(N=Cc3ccccc3Cl)CCCCC2)c1,107
CC(C)(NC(=O)CC1CCCC1)c1nc2c(c(C(N)=O)n1)OCCO2,105
Cc1nn(-c2ccc3nncn3n2)c(C)c1CCC(=O)Nc1cc(F)ccc1F,99
O=C(NCc1c(-c2ccc(Cl)cc2)nc2n1CCS2)c1cccnc1,99
C=CCn1c(=O)c(=O)n(Cc2ccc(C(=O)N3CCC(N4CCCCC4)CC3)cc2)c2ccccc21,110
CSC1=NC2(CC(c3ccccc3)c3cc(Cl)c(O)cc3O2)CC(C)(C)N1 (stereo not given),101
O=C(NCC1CCCO1)c1cc(NS(=O)(=O)c2ccc(F)cc2)cnc1N1CCNCC1 (stereo not given),104
CCOc1ccc(NC(=O)C2CCCN(S(=O)(=O)Cc3ccccc3C)C2)cc1 (stereo not given),100
CCc1cc2c(N3CCCC(C(=O)N4CCOCC4)C3)ncnc2s1 (stereo not given),108
CCOC(=O)c1[nH]c(C)c(CN(Cc2ccc(OC)cc2)C(=O)Nc2ccc3c(c2)OCCO3)c1C,102
COc1ccc(Oc2ccc(-c3cccc(C(=O)NCC(C)C)c3)nn2)cc1,98
CCOc1ccc(-c2csc(-c3cc4cc(OC)ccc4oc3=O)n2)cc1,108

# Bioassay records: PubChem, ICCB-Longwood Screening Facility, Harvard Medical School
